Compound activity deposited in PubChem by National Center for Advancing Translational Sciences (NCATS).
ClpP mod: qHTS Assay for Activators of ClpP | ATP-dependent Clp protease proteolytic subunit (Bacillus subtilis (strain 168)), P80244 | purified B. subtilis ClpP, FRET peptide cleavage, 20 min | Potency, µM (top dose mostly 57.5 µM), for the others: top-dose activity change, negative = active | 1.9% of 340,000 active | AID 651965, 2013; active = well fitted falling curve with a large enough effect; inconclusive = small, poorly fitted or top-dose-only effect; inactive = no such curve, though single readings can be large or run the other way; also: potency is read from the fitted curve at half-maximal effect; the source files actives as falling curves though it sought activators and does not explain the sign; nearly all actives have a fitted effect of over 65% in size; many hits overshoot -100%
Target sequence (P80244 whole entry, looked up): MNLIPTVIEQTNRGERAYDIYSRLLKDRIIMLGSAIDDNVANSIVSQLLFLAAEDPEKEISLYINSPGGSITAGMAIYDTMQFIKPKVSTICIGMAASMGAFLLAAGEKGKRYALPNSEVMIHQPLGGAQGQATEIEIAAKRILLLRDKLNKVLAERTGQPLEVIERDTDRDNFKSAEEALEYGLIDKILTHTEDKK
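ClpP 10 microg/mL final, pH 8 Tris/KCl buffer with BSA, glycerol, Tween-20; compound pinned in; FRET-FV substrate; RT 20 min; Ex320/Em430; ΔFRET vs ADEP 5.8 microM, DMSO, no enzyme.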
Menin-MLL FL inh: qHTS Assay for Inhibitors Targeting the Menin-MLL Interaction in MLL Related Leukemias: Competition With Fluorescein Labeled MLL-derived Peptide. FP activity change, % at 61.4 µM. Fluorescence polarization, fluorescein-MLL peptide displacement from menin. 290,000 tested, under 10 active; inconclusive = falling polarisation curve, or a change in total fluorescence; inactive = total fluorescence flat and polarisation flat or rising; no compound was filed as active; the % refers to the polarisation; negative = inhibition;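 also: % of control where 0% means no effect; inhibitors lower the polarisation; unlabelled MLL peptide was the positive control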
Sfp inh: qHTS Assay for Inhibitors of Bacillus subtilis Sfp phosphopantetheinyl transferase (PPTase) | 4'-phosphopantetheinyl transferase ffp (Bacillus subtilis), Q9F4F7 | Biochemical Sfp PPTase activity, qHTS | Potency, µM, inactives show max response, negative = inhibition, actives largely listed as inhibitors | 3.5% of 310,000 active; active = well fitted inhibition curve with a large enough effect; inconclusive = small, poorly fitted or top-dose-only effect, or another doubt; inactive = no such curve, though single readings can be large or run the other way;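 also: the enzyme is Sfp with the accession as filed and its product quenches rhodamine fluorescence; potency is read from the fitted curve at half-maximal effect; 0% = enzyme reaction without inhibitor and -100% = no enzyme wells; top concentration of the series not given in the record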
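Reaction rates are the 30-min fluorescence difference (ex 525, em 598 nm) in wells containing 15 nM Sfp, 5 uM rhodamine-CoA and 12.5 uM BHQ-2-YbbR at pH 7.6 with 10 mM MgCl2.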
gsp agonist: qHTS for Agonist of gsp, the Etiologic Mutation Responsible for Fibrous Dysplasia/McCune-Albright Syndrome: qHTS. gsp mutant cells, cAMP HTRF, 30 min; control for the full effect not named in the record. Potency, µM (top dose mostly 76.9 µM), for the others: top-dose activation (cAMP increase), usual class: activators. 0.13% of 340,000 active. AID 624287, 2012; active = well fitted activation curve with a large enough effect; inconclusive = small, poorly fitted or top-dose-only effect, or another doubt; inactive = no such curve, though single readings can be large or run the other way; cell line not stated here;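 also: phosphodiesterase inhibitor Ro 20-1724 added with compounds to block cAMP breakdown; potency is read from the fitted curve at half-maximal effect; nearly all actives have a fitted effect of over 60% in size; about a fifth of the inactives were tested at one dose only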
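Cells stably selected in G418 were plated at 2000/well, grown 16-24 hr, then given compounds in DMSO with the PDE inhibitor […] (300 uM solution added) for 30 min at 37C; cAMP was read by HTRF.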
TRPV1 potentiator: HTS Assay for Compounds that Act as Potentiators of the Vanilloid Receptor 1 | Transient receptor potential cation channel subfamily V member 1 (Homo sapiens), Q8NER1 | TRPV1-expressing cells, Fluo-8 calcium influx, capsaicin EC20 potentiation; host cell line not named in the record; control for the full effect not named in the record | potentiation, % at 8.33 µM | 0.02% of 320,000 active | AID 540277, 2011; active means potentiation above 80%; inconclusive means 30% to 80%; inactive means below 30%; also: 0% is about no effect
Target sequence (Q8NER1 whole entry, looked up): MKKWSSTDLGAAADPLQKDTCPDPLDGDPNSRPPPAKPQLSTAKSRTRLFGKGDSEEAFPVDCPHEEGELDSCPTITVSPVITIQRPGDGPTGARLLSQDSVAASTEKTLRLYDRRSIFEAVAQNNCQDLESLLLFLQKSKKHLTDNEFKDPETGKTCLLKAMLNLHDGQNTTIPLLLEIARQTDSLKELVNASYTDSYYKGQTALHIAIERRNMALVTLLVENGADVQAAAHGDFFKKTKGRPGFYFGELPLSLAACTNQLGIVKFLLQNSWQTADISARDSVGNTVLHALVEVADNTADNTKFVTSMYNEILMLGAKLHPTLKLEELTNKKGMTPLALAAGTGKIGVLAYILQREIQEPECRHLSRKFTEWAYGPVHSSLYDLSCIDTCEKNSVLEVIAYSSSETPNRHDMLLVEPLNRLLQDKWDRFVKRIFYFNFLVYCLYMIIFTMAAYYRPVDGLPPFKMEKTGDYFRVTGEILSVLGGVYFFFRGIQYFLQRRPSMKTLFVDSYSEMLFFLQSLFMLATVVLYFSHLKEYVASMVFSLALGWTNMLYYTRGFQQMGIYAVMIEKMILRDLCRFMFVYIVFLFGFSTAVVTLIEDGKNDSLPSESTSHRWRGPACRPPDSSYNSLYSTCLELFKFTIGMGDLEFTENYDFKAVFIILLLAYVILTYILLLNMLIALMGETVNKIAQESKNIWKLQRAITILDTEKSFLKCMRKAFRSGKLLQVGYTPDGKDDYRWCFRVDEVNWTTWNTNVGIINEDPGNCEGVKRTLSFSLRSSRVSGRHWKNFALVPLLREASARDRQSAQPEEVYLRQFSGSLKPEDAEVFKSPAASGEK
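TRPV1-expressing cells were cultured overnight at 35.5C and loaded with Fluo-8 calcium dye for 40 to 90 min at room temperature. After a 10 s baseline, compound was added and calcium influx was read kinetically for 3 min (ex 480/em 520 nm).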
CtBP-E1A blk: qHTS Assay for Inhibitors of the CtBP/E1A Interaction; CtBP / adenovirus E1A interaction (AlphaScreen); AlphaScreen GST-E1A/His-CtBP binding, 1536-well; hits give low values; control for the full effect not named in the record; activity change, % (no concentration beside the values); 0.49% of 340,000 active; in the data active means activity change below about -65%; inconclusive means about -30% to -65%; inactive means above about -30%; also: % is scaled to controls: 0 for no effect and ±100 for the full control effect; compound concentration not given in the record
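GST-E1A and His-tagged CtBP (125 nM each as 5X stock) were preincubated with pin-transferred compound for 2 h at 37 °C in the dark, then glutathione donor and nickel acceptor beads were added for 1 h before AlphaScreen reading.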
gsp antag: qHTS for Antagonists of gsp, the Etiologic Mutation Responsible for Fibrous Dysplasia/McCune-Albright Syndrome: qHTS; 0.4% of 340,000 active; AID 624288, 2012; Potency, µM (highest dose often 76.9 µM), without a hit: at the highest dose activity change, negative = inhibition, actives largely listed as inhibitors; gsp-mutant cells, cAMP HTRF, 30 min; control for the full effect not named in the record; active = falling curve of any shape with a large fitted effect; inconclusive = falling curve, mostly with a smaller effect; inactive = flat or rising curve; cell line not stated here;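 also: intracellular cAMP measured with PDE inhibitor Ro 20-1724 present during compound exposure; potency is read from the fitted curve at half-maximal effect; % is scaled to controls: 0 for no effect and ±100 for the full control effect; nearly all actives have a fitted effect of over 65% in size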
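Measurement of cellular cAMP by homogeneous time-resolved fluorescence following a 30 min compound exposure at 37C. The PDE inhibitor […] was present throughout; the assay buffer was DPBS with 0.05% BSA and 0.005% Tween 20.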
The depositor's hits bear a star; [ ] = remark or other dose. Compounds were not picked by outcome (roughly 5.3% active in at least one column).

Screening COc1cccc(NC(=S)N(CCCN2CCOCC2)C(C)c2cc3ccccc3o2)c1 (stereo not given) returned ClpP mod -0.3%, Menin-MLL FL inh -4.0, Sfp inh 0%, gsp agonist -9%, TRPV1 potentiator 8 and gsp antag -15%.
`Cc1ccc(C)c(S(=O)(=O)N/N=C/c2cccnc2)c1` gave ClpP mod -1.3%, Menin-MLL FL inh -1.5, Sfp inh -9%, gsp agonist 0%[15.4 µM], TRPV1 potentiator 6, CtBP-E1A blk 1 and gsp antag -11%.
For Cc1ccccc1CNC(=O)c1cc2ccccc2o1 the results were ClpP mod 2.5%, gsp agonist -29%, CtBP-E1A blk 10 and gsp antag 5%.
For Cc1ccccc1N1CC(C(=O)Nc2ccc3c(c2)OCO3)CC1=O (stereo not given) the results were Sfp inh -5%, gsp agonist -2%, TRPV1 potentiator -2, CtBP-E1A blk -12 and gsp antag 9%.
`Cc1ccc(-c2cc(-c3ccco3)c3c(N)c(C(=O)NN)oc3n2)cc1` gave ClpP mod 18%, Menin-MLL FL inh inconclusive, Sfp inh inconclusive, gsp agonist inconclusive, TRPV1 potentiator -5 and gsp antag inconclusive.
`Cc1ccc(C(O)(C(=O)NNS(=O)(=O)c2ccc(C)cc2)c2ccc(C)cc2)cc1` gave ClpP mod -2.6%, Menin-MLL FL inh 4.3, Sfp inh -12%, gsp agonist 7%[15.4 µM], TRPV1 potentiator 0, CtBP-E1A blk -4 and gsp antag inconclusive.
For CC(C)(C)NC(=O)c1cccc(NC(=O)Cc2cccs2)c1 the results were ClpP mod 35µM*, Menin-MLL FL inh 0.0, Sfp inh 14%, gsp agonist 9%[15.4 µM], TRPV1 potentiator -14, CtBP-E1A blk 13 and gsp antag 9%.
`COc1ccc(N2CCN(C(=O)c3ccccc3NS(=O)(=O)c3ccc(C)cc3)CC2)cc1` gave ClpP mod 13µM*, Sfp inh 9%, gsp agonist -49%[inhibitor], TRPV1 potentiator 5, CtBP-E1A blk -8 and gsp antag inconclusive.
For COc1ccc(NS(=O)(=O)c2c(C)cc(C)cc2C)cn1 the results were Menin-MLL FL inh -15, Sfp inh -23%, gsp agonist 12%, TRPV1 potentiator 10, CtBP-E1A blk 0 and gsp antag -11%.
Screening COc1cc(CN2CCNC(=O)C2CC(=O)NC2CCCCC2)cc(OC)c1 (stereo not given) returned ClpP mod -6.6%, Menin-MLL FL inh 2.8, Sfp inh -3%, gsp agonist -34%[inhibitor], TRPV1 potentiator 7, CtBP-E1A blk -4 and gsp antag 6%.
Screening COC(=O)C1=C(N)Oc2cc(C)[nH]c(=O)c2C1c1ccc(Cl)cc1 (stereo not given) returned ClpP mod 0.6%, Menin-MLL FL inh 4.4, Sfp inh 1%, gsp agonist 9%, TRPV1 potentiator 0, CtBP-E1A blk 12 and gsp antag -1%.
NS(=O)(=O)c1ccc(CCNC(=O)c2ccncc2)cc1 was read as Menin-MLL FL inh -4.5, Sfp inh -12%, gsp agonist 23%, TRPV1 potentiator 0, CtBP-E1A blk -10 and gsp antag 3%.
CCN(CC)C(=O)C(=O)N/N=C/c1ccc(F)cc1 was read as Menin-MLL FL inh -3.9, Sfp inh 11%, gsp agonist 12%[15.4 µM], TRPV1 potentiator 28 and CtBP-E1A blk -5.
`O=P(O)(CN1CCCCCC1)C1Cc2ccccc2C1` gave Menin-MLL FL inh 2.0, Sfp inh 8% and TRPV1 potentiator -1.
`CC(C)CCN1CCN(Cc2coc3ccccc3c2=O)CC1CCO` (stereo not given) gave Menin-MLL FL inh 2.1, Sfp inh 5%, gsp agonist 12%, TRPV1 potentiator -5, CtBP-E1A blk 0 and gsp antag 2%.
Cc1ccc(NC(=S)NC(=O)c2ccc(Br)o2)c(C)c1 was read as Menin-MLL FL inh 1.7, Sfp inh 25%, gsp agonist 3%, TRPV1 potentiator -8, CtBP-E1A blk 1 and gsp antag -6%.
COc1ccccc1-n1c(C)nc2cc(C(=O)NCCN3CCOCC3)ccc21 was read as ClpP mod -4.4%, Menin-MLL FL inh -5.7, Sfp inh 18%, gsp agonist -4%, TRPV1 potentiator 12 and gsp antag -8%.
For CCN(CC)C(=O)CN(C#N)c1nc(Cl)nc(N(C)C)n1 the results were ClpP mod -3.1%, Menin-MLL FL inh 1.8, Sfp inh 14%, gsp agonist 3%, TRPV1 potentiator -6, CtBP-E1A blk -11 and gsp antag -14%.
`CCOc1ccccc1CN1CCN(Cc2ccc(C)o2)C(CCO)C1` (stereo not given) gave ClpP mod -0.2%, Menin-MLL FL inh -3.3, Sfp inh 9%, gsp agonist -82%[inhibitor], TRPV1 potentiator -3 and gsp antag 6%.
For CCn1cc(C(=O)N2CC(C)CC(C)C2)c(=O)c2cc(S(=O)(=O)N3CCOCC3)ccc21 (stereo not given) the results were ClpP mod -4.3%, Menin-MLL FL inh 3.1, Sfp inh 13%, gsp agonist 13%, TRPV1 potentiator 8, CtBP-E1A blk 4 and gsp antag 10%.
Screening O=C(O)c1ccc(CNC(=O)C2CCN(S(=O)(=O)c3ccc4c(c3)OCCO4)CC2)cc1 returned ClpP mod -2.9%, gsp agonist -49%[inhibitor] and CtBP-E1A blk -2.
Screening CC1Cc2ccccc2N1C(=O)COC(=O)c1ccc(Br)o1 (stereo not given) returned Menin-MLL FL inh -1.7, Sfp inh 11%, gsp agonist -1%, TRPV1 potentiator 0, CtBP-E1A blk 6 and gsp antag 5%.
Cn1c(=O)oc2cc(S(=O)(=O)N3CCCC(C(=O)NC4CCCc5ccccc54)C3)ccc21 (stereo not given) was read as ClpP mod 0.5%, Menin-MLL FL inh 2.2, Sfp inh 9%, gsp agonist -35%[inhibitor], TRPV1 potentiator inconclusive, CtBP-E1A blk -4 and gsp antag -22%.
`CC(C)CC(C(=O)Nc1oc(-c2ccccc2)c(-c2ccccc2)c1C#N)N1C(=O)c2ccccc2C1=O` (stereo not given) gave ClpP mod 3.5%, Menin-MLL FL inh 4.7, Sfp inh 20%, gsp agonist 0%, TRPV1 potentiator 25, CtBP-E1A blk -7 and gsp antag -15%.
`Cn1nnc2c(NCc3ccco3)nccc21` gave ClpP mod 16µM*, Menin-MLL FL inh 2.9, Sfp inh 7%, gsp agonist 2%, TRPV1 potentiator 1, CtBP-E1A blk -2 and gsp antag 7%.
For O=C(Nc1cccc(F)c1)c1c(O)c2ccccc2[nH]c1=O the results were ClpP mod inconclusive, Menin-MLL FL inh -3.3, Sfp inh 12%, gsp agonist 12%[15.4 µM], TRPV1 potentiator 5, CtBP-E1A blk 7 and gsp antag 6%.
`CC(NCc1ccccc1)C1COc2ccccc2O1` (stereo not given) gave ClpP mod 0.6%, Menin-MLL FL inh 0.7, Sfp inh -9%, gsp agonist -4%, TRPV1 potentiator -2, CtBP-E1A blk 12 and gsp antag -1%.
C=CCNC(=O)c1onc(CSc2ccc(F)cc2)c1C(=O)NCC=C was read as ClpP mod -2.2%, TRPV1 potentiator 8, CtBP-E1A blk 0 and gsp antag -1%.
For Cc1cccc(-n2c(C)cc(/C=C3\NC(=O)NC3=O)c2C)c1 the results were Menin-MLL FL inh 6.8, Sfp inh -20%, gsp agonist 4%[15.4 µM], TRPV1 potentiator -4, CtBP-E1A blk -7 and gsp antag 3%.
`O=C(Nc1cccnc1)OC1CCCC1` gave Menin-MLL FL inh 4.4, Sfp inh 4%, gsp agonist -13%[15.4 µM], TRPV1 potentiator -8, CtBP-E1A blk -10 and gsp antag 7%.
`O=S(=O)(c1ccc(F)cc1)N1CCN(Cc2ccccc2C(F)(F)F)CC1` gave ClpP mod -1.0%, Menin-MLL FL inh 0.5, Sfp inh -6%, gsp agonist 6%, TRPV1 potentiator -27, CtBP-E1A blk 7 and gsp antag 4%.
Screening CN(C)C(CNS(=O)(=O)c1ccc(F)cc1)c1cccnc1 (stereo not given) returned ClpP mod 0.8%, Menin-MLL FL inh 2.4, Sfp inh 32%[activator], gsp agonist -6%, TRPV1 potentiator -6, CtBP-E1A blk 3 and gsp antag 7%.
For CCCC(=O)c1c[nH]c(C(=O)N2CCOCC2)c1 the results were Menin-MLL FL inh 0.1, Sfp inh 23%, gsp agonist 19%[15.4 µM], TRPV1 potentiator 12, CtBP-E1A blk 19 and gsp antag -14%.
`CN(C)C(=O)Cn1c(=O)n(S(=O)(=O)c2ccccc2)c2ccccc21` gave Menin-MLL FL inh 1.0, Sfp inh -1%, gsp agonist -32%[inhibitor], TRPV1 potentiator 1, CtBP-E1A blk -16 and gsp antag -4%.
`O=C(NCCN1CCN(c2ccccc2)CC1)C1CCN(S(=O)(=O)c2cccc3nsnc23)CC1` gave ClpP mod -0.3%, Menin-MLL FL inh 0.6, Sfp inh 13%, gsp agonist inconclusive, TRPV1 potentiator 1, CtBP-E1A blk 5 and gsp antag -1%.
Screening CCOC(=O)c1ccc(NC(=O)Nc2ccc3c(c2)OCCO3)cc1 returned ClpP mod -7.0%, Menin-MLL FL inh 0.1, Sfp inh 0%, gsp agonist -49%[inhibitor], TRPV1 potentiator -16, CtBP-E1A blk -20 and gsp antag inconclusive.
For O=C(Nc1ccc(Cl)cc1)NN1CCCCCC1 the results were ClpP mod 0.1%, gsp agonist 3%[15.4 µM], CtBP-E1A blk 1 and gsp antag -10%.
Screening NS(=O)(=O)c1ccc(Nc2nc3ccccc3nc2NS(=O)(=O)c2cccc([N+](=O)[O-])c2)cc1 returned ClpP mod -2.5%, Menin-MLL FL inh -5.2, Sfp inh 24%, gsp agonist 15%[15.4 µM], TRPV1 potentiator 0, CtBP-E1A blk -13 and gsp antag -23%.
